High-throughput results (PubChem BioAssay)
gsp agonist – activates gsp, the McCune-Albright syndrome mutation; gsp mutant cells, cAMP HTRF, 30 min; control for the full effect not named in the record; Potency, µM (doses to about 76.9 µM), for inactives: at the highest dose activation (cAMP increase), most hits filed as activators; 340,000 tested, 0.13% active; AID 624287; active = well fitted activation curve with a large enough effect; inconclusive = small, poorly fitted or top-dose-only effect, or another doubt; inactive = no such curve, though single readings can be large or run the other way; cell line not stated here;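 further: phosphodiesterase inhibitor Ro 20-1724 added with compounds to block cAMP breakdown; potency means the concentration at half of the fitted maximal effect; nearly all actives have a fitted effect of over 60% in size; about a fifth of the inactives were tested at one dose only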
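Cells in DMEM/10% FBS with G418 were pretreated with compounds in DMSO plus […] (300 uM stock) for 30 min at 37C. cAMP was measured by HTRF (cAMP-d2 plus anti-cAMP antibody-K) after 30 min at room temperature.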
Sfp inh – blocks B. subtilis Sfp PPTase activity; Q9F4F7; Biochemical Sfp PPTase activity, qHTS; Potency, µM, for the others: max response, negative = inhibition, hits mostly inhibitors; 310,000 tested, 3.5% active; AID 1490; active means well fitted inhibition curve with a large enough effect; inconclusive means small, poorly fitted or top-dose-only effect, or another doubt; inactive means no such curve, though single readings can be large or run the other way;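 further: the enzyme is Sfp with the accession as filed and its product quenches rhodamine fluorescence; potency means the concentration at half of the fitted maximal effect; 0% = enzyme reaction without inhibitor and -100% = no enzyme wells; top concentration of the series not given in the record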
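Sfp 15 nM + cpd, 15 min RT; start w/ rhodamine-CoA 5 uM, BHQ-2-YbbR 12.5 uM (final); 50 mM Hepes pH 7.6, 10 mM MgCl2, 0.01% NP-40, 0.01% BSA; read 525/598 nm at 0 and 30 min.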
TRPML1 inh – inhibitors of human TRPML1 channel; Q9GZU1; TRPML1-inducible cells, Ca2+ dye fluorescence, FDSS; hits give low values; inhibition of EC80 agonist-evoked calcium signal; activity change, negative = inhibition, % (concentration not given with the values); 390,000 tested, 0.02% active; in the data active means activity change below about -50%; inconclusive means about -30% to -50%; inactive means above about -30%;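 further: stimulus is agonist 54-4 at its EC80 concentration; on the % scale 0 is the no-effect control and ±100 the full control effect; compound concentration not given in the record; the text of the record puts the active cut at -80%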
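Calcium fluorescence in TRPML1-DL cells induced overnight with Tet: a 110 s read after compound pin addition, then a 110 s antagonist read after challenge with 54-4 at 4 uM final (EC80).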
Menin-MLL FL inh – menin-MLL binding inhibition, fluorescein peptide | Fluorescence polarization, fluorescein-MLL peptide displacement from menin | FP activity change, % at 61.4 µM | 290,000 tested, under 10 active | AID 1766; inconclusive = falling polarisation curve, or a change in total fluorescence; inactive = total fluorescence flat and polarisation flat or rising; no compound was filed as active; the % refers to the polarisation; negative = inhibition;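 further: % of control where 0% means no effect; inhibitors lower the polarisation; unlabelled MLL peptide was the positive control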
ClpP mod – qHTS Assay for Activators of ClpP; Potency, µM (doses to about 57.5 µM), inactives show at the top dose activity change, negative = active; AID 651965, 2013; 340,000 tested, 1.9% active; purified B. subtilis ClpP, FRET peptide cleavage, 20 min; active = well fitted falling curve with a large enough effect; inconclusive = small, poorly fitted or top-dose-only effect; inactive = no such curve, though single readings can be large or run the other way; further: potency means the concentration at half of the fitted maximal effect; the source files actives as falling curves though it sought activators and does not explain the sign; nearly all actives have a fitted effect of over 65% in size; many hits overshoot -100%
Target sequence (P80244 whole entry, looked up): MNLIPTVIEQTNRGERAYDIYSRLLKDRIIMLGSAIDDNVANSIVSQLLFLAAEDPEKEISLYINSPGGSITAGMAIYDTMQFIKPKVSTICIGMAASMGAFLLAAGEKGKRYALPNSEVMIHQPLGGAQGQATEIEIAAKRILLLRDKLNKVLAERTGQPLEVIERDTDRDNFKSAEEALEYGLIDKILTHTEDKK
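FRET quenching reversal measured ClpP activation: 10 microg/mL B. subtilis ClpP at pH 8 with the FRET-FV decapeptide, read at 430 nm after 320 nm excitation. The 20-min minus 0-min signal was scaled between DMSO/no-enzyme wells and ADEP (5.8 microM final).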
gsp antagonist – gsp mutant antagonism; gsp-mutant cells, cAMP HTRF, 30 min; control for the full effect not named in the record; Potency, µM (doses to about 76.9 µM), inactives show at the top dose activity change, negative = inhibition, actives largely listed as inhibitors; 340,000 tested, 0.4% active; AID 624288; active = falling curve of any shape with a large fitted effect; inconclusive = falling curve, mostly with a smaller effect; inactive = flat or rising curve; cell line not stated here;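 further: intracellular cAMP measured with PDE inhibitor Ro 20-1724 present during compound exposure; potency means the concentration at half of the fitted maximal effect; on the % scale 0 is the no-effect control and ±100 the full control effect; nearly all actives have a fitted effect of over 65% in size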
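Cells, 2000/well, grown 16–24 h in DMEM 10% FBS with 0.5 mg/ml G418, then compounds plus […] (300 uM addition stock), 30 min at 37C. cAMP read by HTRF (cAMP-d2 and anti-cAMP antibody-K in lysis buffer) after 30 min RT.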
TRPV1 potentiator – potentiators of human vanilloid receptor 1 (TRPV1); Q8NER1; TRPV1-expressing cells, Fluo-8 calcium influx, capsaicin EC20 potentiation; host cell line not named in the record; control for the full effect not named in the record; potentiation, % at 8.33 µM; 320,000 tested, 0.02% active; active means potentiation above 80%; inconclusive means 30% to 80%; inactive means below 30%; further: 0% is about no effect
Target sequence (Q8NER1 whole entry, looked up): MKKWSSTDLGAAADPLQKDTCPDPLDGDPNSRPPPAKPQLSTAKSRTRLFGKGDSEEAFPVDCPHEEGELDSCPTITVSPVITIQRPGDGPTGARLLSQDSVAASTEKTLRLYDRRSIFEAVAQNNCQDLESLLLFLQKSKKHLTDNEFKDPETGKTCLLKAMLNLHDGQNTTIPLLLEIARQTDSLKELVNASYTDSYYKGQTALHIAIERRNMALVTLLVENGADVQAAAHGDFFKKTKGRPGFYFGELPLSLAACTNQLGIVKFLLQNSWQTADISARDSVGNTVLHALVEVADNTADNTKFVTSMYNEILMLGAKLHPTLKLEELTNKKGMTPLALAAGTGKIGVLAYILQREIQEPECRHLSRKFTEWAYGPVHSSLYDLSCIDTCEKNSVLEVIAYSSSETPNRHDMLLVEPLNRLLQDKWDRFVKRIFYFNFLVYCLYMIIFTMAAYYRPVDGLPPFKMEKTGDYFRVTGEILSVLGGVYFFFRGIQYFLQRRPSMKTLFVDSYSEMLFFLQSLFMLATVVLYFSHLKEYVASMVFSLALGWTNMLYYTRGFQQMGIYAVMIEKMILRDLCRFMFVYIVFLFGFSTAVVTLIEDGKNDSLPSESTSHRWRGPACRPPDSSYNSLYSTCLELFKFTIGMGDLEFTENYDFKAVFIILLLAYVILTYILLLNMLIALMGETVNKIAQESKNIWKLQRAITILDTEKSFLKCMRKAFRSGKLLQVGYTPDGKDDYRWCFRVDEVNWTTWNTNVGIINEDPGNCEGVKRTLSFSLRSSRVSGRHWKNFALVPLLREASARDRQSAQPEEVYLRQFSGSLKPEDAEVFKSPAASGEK
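TRPV1-expressing cells were cultured overnight at 35.5C and loaded with Fluo-8 calcium dye for 40 to 90 min at room temperature. After a 10 s baseline, compound was added and calcium influx was read kinetically for 3 min (ex 480/em 520 nm).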
Active calls of the source: *; ? = inconclusive; . = no result given; & = joins results of further samples; [ ] = remark or other dose.

SMILES	gsp agonist	Sfp inh	TRPML1 inh	Menin-MLL FL inh	ClpP mod	gsp antagonist	TRPV1 potentiator
Cn1nc(-c2ccc(OCC(=O)NCC3CCCO3)cc2)c2ccccc2c1=O (stereo not given)	-29%	17%	-8	0.3	-11%	-2%	5
COc1ccc(CCC(=O)NNC(=O)Nc2ccc(OC)c(OC)c2)cc1	17%	8%	-7	-1.1	-0.1%	15%	4
CC[C@@]1(C(=O)OC)N[C@H](CN(C)C(=O)NC(C)C)[C@@H]2C(=O)N(Cc3ccccc3)C(=O)[C@@H]21	.	.	-5	.	1.4%	7%	.
COc1ccc(NC(=O)N2CCN(S(C)(=O)=O)CC2)cc1OC	-36%	10%	-8	2.2	1.8%	10%	-2
Cc1nn(-c2ccccc2)c(C)c1C(=O)OCC(O)=C(C#N)c1nc2ccccc2[nH]1	-30%	.	29	.	.	-18%	.
Cc1ccc(S(=O)(=O)N(C)C[C@@H]2OCc3cnnn3CCCC(=O)N([C@@H](C)CO)C[C@@H]2C)cc1	26%	.	-3	.	-0.5%	.	.
Brc1ccc(C2C3=C(Nc4ncnn42)c2ccccc2OC3c2ccncc2)cc1 (stereo not given)	-1%	-13%	-12	2.0	-26%	2%	-9
COc1ccc(C(=O)Nn2c(SCC(=O)NCC3CCCO3)nc3ccccc3c2=O)cc1 (stereo not given)	1%	6%	-3	5.3	?	-1%	-13
COc1ccc(NC(=O)C2CCCN(C(=O)Nc3ccc(OC)cc3)C2)cc1 (stereo not given)	?	-1%	-6	.	.	-4%	-15
CC(O)CN(CCC(N)=O)CCC(N)=O (stereo not given)	-64%[inhibitor]	-14%	1	0.5	2.1%	-2%	.
CCCNC(=O)Cn1nc(C(F)(F)F)c2c1CCC2	-21%	8%	-18	0.5	.	11%	-1
CCOCC(=O)Nc1ccc2c(c1)N(S(=O)(=O)c1cccs1)CCC2	-3%	.	2	.	0.9%	5%	-17
Cc1ccc2oc(=O)c3cc(C(=O)NCc4ccco4)sc3c2c1	-14%	7%	-14	4.8	3.9%	6%	.
COc1ccc(CC2(CO)CCN(Cc3c(C)nn(C(C)C)c3C)CC2)cc1	-4%[15.4 µM]	11%	7	6.0	.	9%	-1
O=C(CSc1nnc(-c2cccs2)n1CC1CCCO1)c1cc2ccccc2o1 (stereo not given)	-6%[15.4 µM]	5%	1	16	3.7%	-13%	-3
CCC(C)c1ccc(NC(=O)COC(=O)CCNS(=O)(=O)c2cccs2)cc1 (stereo not given)	-20%	.	-6	.	-0.2%	-5%	.
CC(Sc1nnc(COc2ccccc2)n1-c1ccccc1)C(=O)O (stereo not given)	-10%	19%	-10	1.4	.	-6%	-5
CC(C)NC(=O)CSc1nc(-c2ccccc2)cs1	-30%	12%	-10	-0.3	0.4%	5%	18
O=C(Nc1cccc(Cl)c1N1CCCC1)c1ccc(Br)o1	-107%[inhibitor]	0%	19	0.8	-0.8%	-6%	-12
COc1ccc(OC)c(NC(=O)C2CCC(CNc3c(N4CCOCC4)c(=O)c3=O)CC2)c1 (stereo not given)	-1%[15.4 µM]	18%	-5	5.0	.	16%	-1
CC(C)(C)S(=O)(=O)/C(C#N)=N/Nc1ccc(C#N)cc1	5%[15.4 µM]	-7%	7	0.5	.	-13%	-2
O=C(Oc1nsnc1N1CCOCC1)N1CCCC1	-5%	.	-11	.	0.3%	8%	.
CCOc1cc(S(=O)(=O)Nc2ccc(CC)cc2)ccc1Cl	-22%	23%	-14	14	-5.3%	-6%	4
COc1ccc(CCNC(=O)CSc2ccsc2[N+](=O)[O-])cc1OC	-57%[inhibitor]	11%	-12	3.4	-1.6%	-7%	-4
CCOc1ccc2nc(NC(=O)Nc3cccs3)sc2c1	?	-21%	13	2.6	-1.9%	-21%	5
CC(=O)Nc1ccc(C(=S)NCC2(N(C)C)CCCCC2)cc1	-21%[15.4 µM]	6%	-17	-7.9	.	2%	-8
CCC1COCCS(=O)(=O)N1Cc1ccccc1C (stereo not given)	.	11%	7	3.7	0.4%&1.7%	7%	23
O=C(NCc1ccco1)c1cnn2c1NC(c1ccccc1)CC2C(F)(F)F (stereo not given)	-2%	-14%	-9	16	1.3%	-14%	1
COc1ccc(NC(=O)CSc2nnc(Cc3cccn3C)n2CCc2ccccc2)c(OC)c1	14%	-7%	-10	5.6	-1.4%	-9%	14
O=C(c1ccccc1)c1n[nH]c(-c2ccccc2)cc1=O	2%[15.4 µM]	20%	4	-0.7	.	6%	22
CCCC(=O)Nc1nnc(Cc2ccccc2)s1	0%	7%	-8	2.8	-2.8%	9%	.
CCOC(=O)c1ccccc1NC(=O)Cn1c(=O)n(Cc2ccccc2)c(=O)c2c(C)c(C)sc21	5%[15.4 µM]	4%	5&-7	-0.4	-2.1%&51%	5%	0
COC(=O)CSc1ccc(C#N)c(SCC(=O)OC)c1	-25%	-7%	26	1.5	14µM*	-26%	-9
Cc1nn(-c2ccccc2)c(C)c1C(=O)OCC(=O)N1CCN(S(=O)(=O)c2ccccc2)CC1	-14%	5%	6	1.0	0.5%	-15%	-33
CCC(C)(C)n1nnnc1C(c1ccc(OC)c(OC)c1)N1CCN(c2cccc(OC)c2)CC1 (stereo not given)	1%	-16%	-24	5.9	-14%	4%[15.4 µM]	17
O=C(CSc1nnc(CNC(=O)c2c(F)cccc2F)o1)NCc1ccccc1	-20%	7%	16	-0.8	-4.5%	-11%	1
Clc1ccc(CNc2ccccn2)cc1	?	2%	-1	-6.2	?	22%	7
Cc1ccc(-n2nc(-c3ccco3)cc2C(=O)NCc2cccnc2)cc1	14%	10µM*	-2	8.9	-3.5%	?	-14
COc1ccc(-c2oc3ccc(-c4ccc5c(c4)OCO5)cc3c2-c2ccc(OC)nc2)cc1	0%	.	16	.	4.5%	5%	.
COc1cccc(NC(=O)C2CCN(S(=O)(=O)c3ccc(N4CCCC4=O)cc3)CC2)c1	-2%	.	2	.	0.3%	.	.
C=CCOc1cccc(C(=O)NC(c2ccccc2)C(C)C)c1 (stereo not given)	-3%	22%	49	-3.1	.	-14%	-23
COc1ccc(OCc2cc(C(=O)N(C)Cc3nnc(C)o3)no2)c(Cl)c1	-122%[inhibitor]	13%	6	0.1	0.3%	6%	1
CCCNC(=S)N1CC2(C)CN(C(=O)C(=O)OCC)CC(C)(C1)C2=O	5%	1%	6	2.5	2.6%	9%	-6
Cc1ccc(S(=O)(=O)NCCC(c2ccccc2)c2ccco2)cc1 (stereo not given)	-7%	15%	-19	-1.9	-3.3%	-4%	-3
Cc1cc(-c2nn(C)c(=O)c3ccccc23)ccc1CNC(=O)NC1CCCCC1	1%	?	-10	4.5	.	-4%	17
Cc1ccccc1-n1nc2c(c1NC(=O)c1c(-c3ccccc3Cl)noc1C)CSC2	-7%	18%	16	3.3	-2.9%	-3%	29
CCN(CC)CCN1C(=O)C(O)=C(C(=O)c2cc3cccc(OC)c3o2)C1c1ccc(F)cc1 (stereo not given)	3%[15.4 µM]	-4%	6	2.9	.	17%	4
O=C(NCc1ccco1)C1CCN(C(=O)c2ccc([N+](=O)[O-])cc2)CC1	5%	7%	18	-0.9	-0.7%	14%	-1
CC1CC(C)CN(C(=O)COC(=O)c2ccc(S(=O)(=O)N(C)c3ccccc3)cc2)C1 (stereo not given)	-15%	.	10	.	-2.9%	-8%	.
COc1nc(N)nc(NC(=O)c2cccs2)c1N=O	-3%[15.4 µM]	.	37	.	.	-24%	.
CCC1CCCCN1CCCNC(=O)c1ccc(N2CCCC2=O)cc1 (stereo not given)	-3%	6%	13	.	-0.4%	10%	-5
O=C(NCc1ccccn1)c1ccc(Cn2cc(Br)cn2)o1	-23%	?	-13	5.2	0.6%	5%	-5
CC1=NOC2(C1)N(C)c1ccccc1C2(C)C (stereo not given)	-36%[inhibitor]	-11%	46	0.1	-2.6%	13%	-2
Cc1ccc(Cn2nnc3c(=O)n(Cc4ccccc4C)cnc32)cc1	3%	20%	-3	0.3	0.0%	2%	-12
Cc1nc(SCC(=O)NCc2ccccc2)c2oc3ccccc3c2n1	?	-1%	-3	-0.7	-1.7%	1%	-4
C=CCN(c1ccccc1OC)S(=O)(=O)c1cccc(C(=O)NCC(c2ccc(OC)cc2)N2CCCC2)c1 (stereo not given)	-6%	.	4	.	0.6%	?	.
CCS(=O)c1scc(-c2ccc(Cl)cc2)c1C#N (stereo not given)	3%	11%	-6	1.3	-1.1%	-10%	-2
CCOC(=O)CCCCCCCCC(=O)Nc1ccc(-n2[nH]c(=O)cc2C)cc1	-22%	.	5	.	-2.3%	-12%	.
N/C(Cn1cncn1)=N\NC(=O)C(=O)Nc1ccccc1	28%	?	-8	-2.0	.	5%	8
Nc1cc2[nH]c(=O)c3ccccc3c2cc1[N+](=O)[O-]	-5%	.	-12	.	0.6%	7%	.

Next section
SMILES	gsp agonist	Sfp inh	TRPML1 inh	Menin-MLL FL inh	ClpP mod	gsp antagonist	TRPV1 potentiator
O=C(Nc1ccccc1OC(F)F)C1CC(=O)N(Cc2ccccc2)C1 (stereo not given)	3%	.	1	.	-8.2%	5%	-1
CN(C)c1ccc(/C=C2\CCCc3c2nc2ccccc2c3C(=O)O)cc1	-1%[15.4 µM]	-27%	-6	.	.	.	5
COc1ccc(N2CC(C(=O)N[C@@H](C)C(=O)NC(C)c3ccccc3)CC2=O)cc1 (stereo not given in full)	-14%	9%	11	3.0	0.0%	4%	23
CCCCC(=O)N(CCC)CCC	-11%[15.4 µM]	19%	1	-6.4	.	15%	-12
CC(=O)c1ccc(S(=O)(=O)N2CCN(c3nc(-c4cccnc4)nc4ccccc34)CC2)cc1	-2%	.	-14	.	-0.8%	-32%	7
CCn1nnc2cc(C(=O)NCCc3ccccc3F)ccc21	6%	18%	14	0.0	.	-2%	8

This is a random part of the collection; 4.9% or so of the library scored in one or more.
